RanGTP-Impb inh: disruptors of Ran-importin-beta complex formation – biochemical, FRET, CFP-Ran, YFP-importin-beta, homogeneous, primary screen | inhibition, % (no concentration beside the values) | cell-free CFP-Ran/YFP-importin-beta FRET ratio | actives 1.1% (n = 300,000) | AID 2216;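 active means most replicates above 15%; inconclusive means exactly half above 15%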;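 further: 0% = DMSO wells and 100% = Ran loaded with GDP instead of GTP; wells of about 40 µL received 100 nL stock; the first replicate is given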
HNF4A DNA FP: change in binding of human HNF4 alpha to DNA. P41235. HNF4a-FITC DNA binding, fluorescence polarization, 1 h. activity change, % at 10 µM. actives 0.3% (n = 360,000). AID 1224865; in the data active means activity change above about 30%, passing the limit was not always enough;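 further: controls were the assay level and a saturating level of protein; the project sought stronger binding though the title names inhibitors; some compounds called inactive have numbers as strong as hits; positive values seem to mean higher polarization but the record does not say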
Ecoli growth: blocks Escherichia coli growth. OD600, 23 h; hits give low values. OD600 absorbance (no concentration beside the values). actives 0.21% (n = 330,000);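 active means OD600 absorbance below the run mean of sample wells minus 3.6 SD, in any replicate, cut at about 0.56 in these data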;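 further: stock transfer was 300 nL into about 60 µL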
AF4-AF9 inh: blocks AF4 peptide binding to human AF9. actives 0.47% (n = 350,000). AID 651704. inhibition, % at 10 µM. AlphaScreen, biotin-AF4 peptide binding to FLAG-AF9;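 active means every replicate reaching a set inhibition limit, whatever the replicate mean, cut at about 25% in these data; inconclusive means mean inhibition reaches that limit but some replicates miss it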;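 further: 0% = plate neutral control median and 100% = total signal loss; the record names both 10 and 1 µM as test concentration; the first replicate is given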
Target sequence (P42568 whole entry, looked up): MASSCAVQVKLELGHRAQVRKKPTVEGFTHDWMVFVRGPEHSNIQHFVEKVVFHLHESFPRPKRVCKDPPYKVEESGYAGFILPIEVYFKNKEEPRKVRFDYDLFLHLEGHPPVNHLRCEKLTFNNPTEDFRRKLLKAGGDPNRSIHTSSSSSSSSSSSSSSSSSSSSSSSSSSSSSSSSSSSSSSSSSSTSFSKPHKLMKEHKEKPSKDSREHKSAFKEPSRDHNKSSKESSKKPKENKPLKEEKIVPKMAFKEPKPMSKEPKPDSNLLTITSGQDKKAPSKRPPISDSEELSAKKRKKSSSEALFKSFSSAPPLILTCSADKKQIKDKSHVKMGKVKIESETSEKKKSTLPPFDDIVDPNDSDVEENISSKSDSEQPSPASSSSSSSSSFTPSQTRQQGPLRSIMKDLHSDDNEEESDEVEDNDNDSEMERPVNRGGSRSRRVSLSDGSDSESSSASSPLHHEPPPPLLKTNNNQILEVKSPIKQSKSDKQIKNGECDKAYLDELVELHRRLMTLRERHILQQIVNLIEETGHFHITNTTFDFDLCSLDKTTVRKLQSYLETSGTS
Vif TR-FRET: inhibitors of Vif binding to APOBEC3G peptide, primary screen, biochemical, TR-FRET, GST-Vif 1-94, biotin-A3G peptide, dose response retest (AID 1117319). TR-FRET GST-Vif / biotin-A3G peptide binding; higher % means a stronger effect; test concentration not given here; strong numbers were not always called active. inhibition, %; hits with a dose series show IC50 in µM. actives 0.57% (n = 260,000);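 active means above the screen mean plus three standard deviations and confirmed in dose response; inconclusive means results disagree or hit not tested in dose response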;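 further: Vif residues 1-94 fused to GST binding biotinylated APOBEC3G peptide 110-148; 0% = full assay without inhibitor and 100% = GST in place of GST-Vif; retest series ran down from 100 µM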
FGF22 binding: binders of recombinant human FGF22 by thermal shift | calls only at 9.99 µM | SYPRO orange fluorescence; percent of sucrose octasulfate shift, DMSO zero | actives 1.5% (n = 340,000);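 active means melting point raised past a set limit in the mean and every replicate; inconclusive means no clear call; three in four hits are not shown here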
Target sequence (Q9HCT0 whole entry, looked up): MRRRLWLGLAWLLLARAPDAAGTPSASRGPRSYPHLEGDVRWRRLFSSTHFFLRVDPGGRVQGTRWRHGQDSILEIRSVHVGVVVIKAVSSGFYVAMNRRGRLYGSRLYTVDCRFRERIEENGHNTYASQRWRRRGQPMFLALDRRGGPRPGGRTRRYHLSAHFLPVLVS
UCH37 inh: blocks the human deubiquitinase UCH37; actives 0.33% (n = 330,000); inhibition, % (no concentration beside the values); Q9Y5K5; purified proteasome/UCH37, Ub-AMC cleavage fluorescence; AID 588478;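 active means mean of two replicates above 20%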;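 further: 0% = compound-free wells with enzyme and 100% = wells lacking proteasome; stock transfer was 100 nL into about 20 µL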
Target sequence (Q9Y5K5 whole entry, looked up): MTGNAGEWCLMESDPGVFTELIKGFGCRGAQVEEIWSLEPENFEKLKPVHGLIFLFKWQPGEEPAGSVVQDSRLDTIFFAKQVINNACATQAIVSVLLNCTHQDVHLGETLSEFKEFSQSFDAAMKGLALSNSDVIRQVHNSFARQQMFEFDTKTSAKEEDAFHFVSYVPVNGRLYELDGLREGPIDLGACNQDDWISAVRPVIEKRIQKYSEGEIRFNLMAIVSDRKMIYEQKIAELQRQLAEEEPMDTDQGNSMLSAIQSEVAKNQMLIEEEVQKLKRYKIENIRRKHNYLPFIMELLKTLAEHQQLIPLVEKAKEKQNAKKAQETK
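Material: human UCH37 enzyme supplied as purified proteasome complex. Measure: % inhibition of Ub-AMC cleavage fluorescence. Medium: pH 7.4 Tris-HCl (50 mM) with ovalbumin, ATP-MgCl2, DTT. Times: 30 min preincubation with enzyme, 25 min cleavage at room temperature. Detection: AMC fluorescence intensity at 355/460 nm.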
The depositor's hits bear a star; i = inactive; ? = inconclusive; . = no result given; + = active, no number; & = joins results of further samples. Only part of the results is shown; count on the stated rates, not on these rows.

Fields: RanGTP-Impb inh	HNF4A DNA FP	Ecoli growth	AF4-AF9 inh	Vif TR-FRET	FGF22 binding	UCH37 inh
CCCNc1c(NS(=O)(=O)c2ccc(C(C)(C)C)cc2)c(=O)oc2ccccc12
→ 0.6	1.7	0.72	-0.2	0%	i	-3.7
CC1CCCCN1CCNc1nc(=S)[nH]c2ccccc12 (stereo unspecified)
→ 0.3	1.8	0.69	.	1%	.	1.7
Cn1c2ccccc2c(=O)c2ccc(NCCc3cccs3)cc21
→ .	-68	0.69	-6.6	.	i	-102
COc1cccc(CN2CCC2(C)C(=O)Nc2ccc3c(c2)CCN3C(C)=O)c1F (stereo unspecified)
→ .	-0.4	.	2.3	.	i	.
Cc1ccc(-c2ccc(CN3C(C)C(=O)N(Cc4cn(Cc5ccco5)nn4)CCS3(=O)=O)cc2)cc1 (stereo unspecified)
→ .	-1.8	.	-0.1	.	i	.
CCCc1cc(C(=O)OCC(=O)NCCc2ccccc2)sc1C
→ .	-2.0	.	-1.5	-7%	i	.
N#CC1=C(N)SC(N)=C(C#N)C1C1CC=CCC1 (stereo unspecified)
→ 5.2	1.1	0.69	.	10%	.	3.5
Cc1ccc(NC(=O)c2ccccn2)c(Br)c1
→ 2.7	1.9	0.66	-1.2	.	.	-0.8
O=C(CSc1nc2ccccc2c(=O)n1Cc1ccc(Cl)cc1)NCc1cccs1
→ 4.5	1.8	0.73	-0.3	-11%	i	0.7
Cc1ccc(-n2cc3c(=O)n(C)c(=O)n(C)c3c2)cc1C
→ 0.2	2.4	0.73	.	?	.	-8.8
CCN1CCN(c2ccc(S(=O)(=O)N3CCOCC3)cc2NC(=O)CC(NC(C)=O)c2ccccc2)CC1 (stereo unspecified)
→ .	-2.2	0.71	2.6	.	i	1.5
COc1ccc(C2=NN(C(=O)CN3CCCC3)C(c3ccc(OC)cc3)C2)cc1 (stereo unspecified)
→ -2.3	1.5	0.62	.	-15%	i	0.0
O=C1CCN(Cc2ccccc2)C=C1c1ccc2ccccc2c1
→ .	-3.3	0.61	-2.2	.	i	0.9
COc1ccc(CNC(=O)C2COc3ccccc3O2)c(OC)c1 (stereo unspecified)
→ 2.0	1.5	0.66	.	27%	.	0.9
OCC[C@@H]1C[C@H](O)[C@@H](O)[C@]2(OCCc3cc(Cl)ccc32)O1
→ .	3.8	.	-0.1	.	i	.
CCN(Cc1cc2cc(C)ccc2[nH]c1=O)S(=O)(=O)c1ccccc1
→ 0.3	0.3	0.67	.	-24%	.	-9.3
O=S(=O)(Cc1ccccc1)NCc1ccccn1
→ ?	-5.1	0.72	-1.5	?	i	0.7
Nc1[nH]ncc1S(=O)(=O)c1ccccc1
→ -0.3	2.3	0.72	1.3	-4%	i	2.4
COc1ccc(CN2CCNC(=O)C2CC(=O)N(C)CC2CCOCC2)cc1OC (stereo unspecified)
→ -2.9	3.9	0.7	-8.9	.	i	1.2
Cc1ccc(/C=C2/SC(=Nc3ccc(F)cc3)NC2=O)s1
→ -11	30	0.69	-0.6	-3%	i	6.7
CCCCOc1ccc(/C(O)=C2/C(=O)C(=O)N(CCCOC)C2c2ccncc2)cc1 (stereo unspecified)
→ -3.0	0.0	.	.	-1%	.	3.9
COc1ccc2[nH]c(=O)c(CN(C(=O)c3cccnc3)c3ccccc3)cc2c1
→ 3.3	-0.8	0.71	.	-16%	.	-18
C/C=C/C(=O)N1c2ccccc2C(C)=CC1(C)C
→ -0.6	3.3	0.68	-0.2	.	i	1.8
Cn1c(S(=O)(=O)c2ccc([N+](=O)[O-])cc2)nc(Br)c1Br
→ -3.4	2.6	0.65	-5.6	?	i	5.2
COc1cccc(CC(=O)Nc2nc3c(s2)C(=O)CC(C)(C)C3)c1
→ -0.6	5.2	0.71	-0.7	-20%	i	-0.5
COc1cccc(-c2nnc(Nc3nc4c(F)cccc4s3)o2)c1
→ 1.8	0.2	0.71	.	21%	.	-89
CCOc1ccc(C(=O)N2CCC3(CC2)NCCc2[nH]cnc23)cc1
→ -0.6	5.0	0.64	1.3	-6%	i	2.4
O=C(c1ccc(Cn2c(=O)[nH]c3ccccc3c2=O)cc1)N1CCN(c2ccccn2)CC1
→ -0.5	-0.6	0.7	-2.3	2%	i	-0.2
O=C(CCCn1c(=O)[nH]c2ccccc2c1=O)Nc1ccc(F)cc1
→ 4.3	-0.3	0.71	-7.5	12%	i	1.2
CC(C)[C@H](NC(=O)[C@@H]1Cc2ccccc2CN1)C(=O)Nc1ccc2c(c1)OCO2
→ 5.5	0.9	0.65	7.3	.	i	-0.7
CCOc1ccc(NC(=O)C/C(C)=N/NC(=O)c2cnccn2)cc1
→ -0.3	0.6	.	-6.2	.	i	.
CC(=O)N1c2ccc(S(=O)(=O)N3CCCC3C(=O)NCc3ccccc3Cl)cc2CC1C (stereo unspecified)
→ 2.8	2.8	0.68	0.8	5%	i	1.3
O=C(CSC(=S)N1CCCCC1)Nc1ncc2c(n1)CC(c1ccco1)CC2=O (stereo unspecified)
→ 0.4	2.9	0.67	-2.6	.	i	3.7
COc1ccc(CSc2nc3ccccc3c(=O)n2CCCN2CCOCC2)cc1F
→ -0.9	-4.0	0.69	4.6	5%	i	0.1
O=C(Nc1ccc(N2CCCCC2)cc1)C(Cl)c1ccccc1 (stereo unspecified)
→ 5.6	-0.8	0.72	9.2	2%	i	6.4
COc1cc(NC(=O)C2CCN(S(=O)(=O)c3cccs3)CC2)cc(OC)c1
→ ?	1.8	0.65	-1.5	-4%	.	3.0
COc1ccc(OC)c(CCNC(=O)c2ccc3c(c2)N(Cc2ccccc2)CCS3)c1
→ 0.8	1.8	0.73	-2.2	-1%	i	-67
O=C(c1cnn2c(C(F)(F)F)cc(-c3cccs3)nc12)N1CCN(C(c2ccccc2)c2ccccc2)CC1
→ 7.6	-5.7	0.76	.	7%	.	-4.3
c1cncc(-c2cccnc2)c1
→ 1.5	-2.9	0.7	.	?	.	-0.9
CCCCN(CCCC)CCCNC(=O)C1CC(c2cc(C(F)(F)F)cc(C(F)(F)F)c2)=NO1 (stereo unspecified)
→ -2.0	0.3	0.68	-4.0	.	i	3.5
COc1cc(/C=C2\CCn3c2nc2cc(C(=O)O)ccc2c3=O)ccc1OC(F)F
→ 3.8	2.2	0.67	0.0	-3%	+	-42
COc1ccc(CNC(=O)CN(C(=O)c2csnn2)c2cccc3ccccc23)cc1
→ -0.3	-0.2	0.67	-0.3	.	i	5.7
Cc1ccc(C(=O)NCC(c2ccc(F)cc2)N2CCOCC2)s1 (stereo unspecified)
→ .	0.5	0.72	0.3	1%	i	2.8
Nc1ncnc2c1ncn2[C@@H]1O[C@H](C(=O)NCc2ccc(OC(F)(F)F)cc2)[C@@H](O)[C@H]1O
→ .	-1.5	.	2.2	.	i	.
CCCOc1ccc(C2c3c(oc4cc(C)c(C)cc4c3=O)C(=O)N2CCCN(C)C)cc1 (stereo unspecified)
→ 0.2	0.3	0.74	2.8	7%&-6%	.	5.7
CCOc1ccc(N2C(=O)S/C(=C\c3cc(OC)c(OC)c(OC)c3)C2=O)cc1
→ -0.6	-2.1	0.59	-1.5	-2%	i	4.9
CC(=O)Nc1cccc(NC(=O)CSc2nc3c(=O)n(C)c(=O)n(C)c3n2C)c1
→ 0.0	-1.3	0.7	0.0	-5%	i	-0.2
Cc1noc(C)c1S(=O)(=O)N(C)C[C@H]1Oc2c(NC(=O)Nc3ccccc3)cccc2C(=O)N([C@H](C)CO)C[C@@H]1C
→ .	8.1	0.75	-0.1	.	i	-2.2
O=C(Nc1nnc(-c2cc(Cl)ccc2Cl)o1)c1ccco1
→ -4.0	-1.5	0.68	0.9	-5%	i	3.5
Cc1ccc(NC(=O)N2CCCc3ccccc32)cc1C
→ 3.9	-0.9	0.72	0.0	-5%	i	4.4
Cc1cccc(NC(=O)CNC(=O)c2cccc(-n3cccc3)c2)c1C
→ 9.0	-29	0.71	-0.4	12µM*	i	5.3
Nn1c(SCc2cn3ccccc3n2)nnc1-c1ccncc1
→ 2.0	1.6	0.65	-2.7	-9%	i	-1.0
Cc1ccc2c(C)c(C(=O)N(Cc3cccs3)C3CCS(=O)(=O)C3)oc2c1 (stereo unspecified)
→ 0.4	-0.6	0.72	.	22%	.	1.6
O=C(/C=C/c1ccccc1)NC1CC2CCCC(C1)N2Cc1ccccc1 (stereo unspecified)
→ -2.3	.	0.65	.	.	.	7.0
CCOC(=O)N1CCN(C(=O)c2cccc(NS(=O)(=O)c3ccc(F)c(F)c3)c2)CC1
→ -0.8	2.2	0.65	.	5%	.	-0.2
Cc1ccc(S(=O)(=O)N(CCC(=O)O)Cc2ccc(Cl)cc2)cc1
→ -1.8	5.9	0.66	-3.9	-1%	i	5.2
COc1ccccc1CNC(=O)CSc1ccc(-c2ccccn2)nn1
→ 3.4	5.5	0.67	-13	2%	i	2.9
O=C1C(Cl)=C(N2CCCCCC2)C(=O)N1c1ccccc1Cl
→ -0.7	4.4	0.68	3.8	1%	i	1.9
COc1ccc(OC)c(S(=O)(=O)N2CCCC(C(=O)N3CCCC3)C2)c1 (stereo unspecified)
→ 2.5	-4.9	0.71	-0.1	.	i	0.0
CCN(c1ccccc1)S(=O)(=O)c1ccc(C(=O)Nc2ccccc2OC)cc1
→ .	1.4	0.66	1.6	-5%	i	0.2

The list goes on.
Fields: RanGTP-Impb inh	HNF4A DNA FP	Ecoli growth	AF4-AF9 inh	Vif TR-FRET	FGF22 binding	UCH37 inh
CC(C)NC(=O)NNc1c(Cl)cncc1Cl
→ 7.6	3.8	0.6	-2.2	-1%	i	0.5
CCCCC(=O)NC(=S)Nc1ccccc1C(=O)Nc1ccccc1
→ -2.0	0.0	0.69	.	-5%	.	-87
Nc1ncnc2c1ncn2CCN1CCOCC1
→ 2.5	1.6	0.8	.	-1%	.	6.1
CCCn1nnc(NC(=O)c2cc3ccccc3o2)n1
→ 3.2	-3.9	0.64	-1.5	?	i	3.0
CC(O)c1nc2ccccc2n1C(C)c1ccccc1 (stereo unspecified)
→ 0.1	-1.7	0.69	0.2	.	i	4.2
O=C(COc1ccccc1)Nc1nnc(-c2ccc(F)cc2)o1
→ 5.4	0.3	0.6	-1.2	-6%	i	1.7
COc1ccc(COC(=O)CCS(=O)(=O)c2ccc(C)cc2)cc1F
→ 2.8	-0.6	.	-1.2	.	i	.
O=C(O)CN1C(=O)C2C3CC(C2C1=O)C1C(c2ccc(F)cc2)c2sc(=O)[nH]c2SC31 (stereo unspecified)
→ 79*	-1.2	0.68	-2.1	9%	i	-0.4
O=C(NCc1cccnc1)NC(C(F)(F)F)C(F)(F)F
→ -3.8	0.6	0.74	.	0%	.	-6.5
CCn1ncc(Br)c1C(=O)N(C)C12CC3CC(CC(C3)C1)C2
→ 3.6	0.5	0.76	.	1%	.	-4.9
Cc1cc(O)c(C(C)C)cc1NS(=O)(=O)c1ccccc1
→ -1.1	-4.2	0.66	.	?	.	2.2
O=C(O)/C=C\c1cn(-c2ccccc2)nc1-c1cc2ccccc2o1
→ -1.0	2.7	0.69	2.6	6%	.	-194
CCn1cc([N+](=O)[O-])c(C(=O)Nc2ccn(C34CC5CC(CC(C5)C3)C4)n2)n1
→ ?	-5.7	0.73	.	8%	.	1.8

One compound at a time (already shown). Screens in order: RanGTP-Impb inh	HNF4A DNA FP	Ecoli growth	AF4-AF9 inh	Vif TR-FRET	FGF22 binding	UCH37 inh
Listed for Cn1c2ccccc2c(=O)c2ccc(NCCc3cccs3)cc21 = .	-68	0.69	-6.6	.	i	-102
Listed for CCN(c1ccccc1)S(=O)(=O)c1ccc(C(=O)Nc2ccccc2OC)cc1 = .	1.4	0.66	1.6	-5%	i	0.2
Listed for Cc1ccc(NC(=O)N2CCCc3ccccc32)cc1C = 3.9	-0.9	0.72	0.0	-5%	i	4.4

Screening results: PubChem BioAssay, several laboratories
